RE007 growth inh: less growth of the S. pombe RE007 Vpr strain; S. pombe RE007 Vpr strain, BacTiter-Glo ATP luminescence, 24 h; control for the full effect not named in the record; Potency, µM (highest dose often 92.2 µM), inactives show at the top dose activity change, negative = less growth; 360,000 compounds, 0.21% hits; active = well fitted falling curve with a large enough effect; inconclusive = small, poorly fitted or top-dose-only effect; inactive = no such curve, though single readings can be large or run the other way;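 further: on the % scale 0 is the no-effect control and ±100 the full control effect; nearly all actives have a fitted effect of over 50% in size; the assay follows cell death caused by Vpr and the record does not say whether a fall means rescue or toxicity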
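Fission yeast strain RE007, carrying one chromosomally integrated HIV-1 vpr copy, was seeded at OD 0.01 in PMG+AL medium with 23 nL pinned compound. After 24 h at 30 °C and 99% humidity, viability was read by BacTiter-Glo luminescence.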
SARS PLP yeast: SARS-CoV PLP inhibition in yeast | S. cerevisiae expressing SARS-CoV PLpro, growth rescue; control for the full effect not named in the record | Potency, µM (doses to about 32.9 µM), for inactives: at the top dose activity, positive = growth rescue | 330,000 compounds, 0.19% hits; further: 0% is about no effect; nearly all actives have a fitted effect of over 55% in size; growth read by luminescence after 48 h
StopGo reporter: FMDV 2A StopGo reporter, luciferase signal | human cells with a luciferase reporter of 2A StopGo recoding; control for the full effect not named in the record | Potency, µM (titrated, usually from 57.9 µM), for inactives: at the top dose signal change, negative = less light | 410,000 compounds, 1.2% hits | AID 1159524; active = well fitted falling curve with a large enough effect; inconclusive = small, poorly fitted or top-dose-only effect; inactive = no such curve, though single readings can be large or run the other way; tested in HEK293T cells; further: on the % scale 0 is the no-effect control and ±100 the full control effect; nearly all actives have a fitted effect of over 45% in size; luciferase light after 4 h
Cruzain Triton: cruzain (T. cruzi) inhibition with detergent; purified cruzain, Z-FR-AMC fluorescence, 0.01% Triton; Potency, µM, for inactives: max response, negative = inhibition, actives largely listed as inhibitors; 200,000 compounds, 0.43% hits; active means well fitted curve in the direction sought with a large enough effect; inconclusive means small, poorly fitted or top-dose-only effect, or another doubt; inactive means no such curve, though single readings can be large; an effect the other way counts as inactive or inconclusive;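 further: plate controls were neutral wells for no effect and buffer without enzyme for full effect; nearly all actives have a fitted effect of over 40% in size; top concentration of the series not given in the record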
Target sequence (P25779 123-467 limits assumed): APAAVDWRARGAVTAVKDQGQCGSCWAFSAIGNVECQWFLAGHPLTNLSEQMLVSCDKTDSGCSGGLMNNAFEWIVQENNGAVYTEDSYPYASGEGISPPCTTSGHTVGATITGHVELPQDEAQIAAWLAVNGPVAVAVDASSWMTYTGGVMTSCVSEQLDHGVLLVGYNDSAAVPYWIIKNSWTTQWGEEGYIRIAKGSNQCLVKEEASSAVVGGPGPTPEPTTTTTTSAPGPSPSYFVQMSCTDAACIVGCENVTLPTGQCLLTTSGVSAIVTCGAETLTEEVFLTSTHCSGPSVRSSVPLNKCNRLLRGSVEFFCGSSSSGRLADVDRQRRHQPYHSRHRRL
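Compounds were screened in titration against cruzain (1.5 nM) with 0.01% Triton X-100 to counter colloidal aggregation. Activity was the AMC fluorescence increase over 60 s after adding 2 uM Z-FR-AMC at pH 5.5.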
Marburg entry inh: Marburg virus entry inhibition | Marburg virus pseudotyped entry inhibition, cell reporter; control for the full effect not named in the record; about a third of the inactives were read at about 46 µM | Potency, µM (series often up to 37.8 µM), for inactives: at the top dose activity change, negative = inhibition, hits mostly inhibitors | 300,000 compounds, 1.8% hits; active = well fitted inhibition curve with a large enough effect; inconclusive = small, poorly fitted or top-dose-only effect, or effect the other way; inactive = flat fitted curve, though single readings scatter; tested in HEK293 cells; about a fifth of its hits are not listed in these tables; further: on the % scale 0 is the no-effect control and ±100 the full control effect; luciferase read-out
Cruzain inh noDet: cruzain (T. cruzi) inhibition without detergent; P25779; 200,000 compounds, 2.3% hits; Potency, µM, without a hit: max response, negative = inhibition, hits mostly inhibitors; purified cruzain, Z-FR-AMC fluorescence, no detergent; AID 1476; active means well fitted curve in the direction sought with a large enough effect; inconclusive means small, poorly fitted or top-dose-only effect, or another doubt; inactive means no such curve, though single readings can be large; an effect the other way counts as inactive or inconclusive;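 further: plate controls were enzyme without inhibitor for no effect and buffer without enzyme for full effect; nearly all actives have a fitted effect of over 40% in size; top concentration of the series not given in the record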
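Purified cruzain at 1.5 nM, pre-incubated 15 min with compound at room temperature in 100 mM sodium acetate pH 5.5, 5 mM DTT, 0.00005% Triton X-100. Reaction started with 2 uM Z-FR-AMC; AMC fluorescence increase over 60 s gives rate.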
Lassa entry inh: inhibitors of Lassa virus binding or cell entry | Lassa virus pseudotype entry inhibition, cell reporter; control for the full effect not named in the record | Potency, µM (titrated, usually from 37.9 µM), for inactives: at the highest dose activity change, negative = inhibition, most hits filed as inhibitors | 300,000 compounds, 1.2% hits | AID 540256; active means well fitted inhibition curve with a large enough effect; inconclusive means small, poorly fitted or top-dose-only effect, or effect the other way; inactive means flat fitted curve, though single readings scatter; tested in HEK293 cells; further: on the % scale 0 is the no-effect control and ±100 the full control effect; nearly all actives have a fitted effect of over 50% in size; luciferase read-out
NS1 inh: influenza NS1 inhibition. Potency, µM (titrated, usually from 46.1 µM), inactives show at the highest dose activity, positive = more growth. AID 2326. S. cerevisiae slowed by influenza A NS1, growth recovery by OD600. 270,000 compounds, 0.4% hits; further: actives are rising curves; nearly all actives have a fitted effect of over 50% in size
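S. cerevisiae expressing influenza A NS1, grown in glucose, washed, then diluted 1:100 into pH 6.0 -URA galactose medium with 23 nl compound. Growth recovery read as OD600; NS1-free strain serves as control.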
* hit, by the source's call; u = inconclusive; x = not tested or not shown; [ ] = dose if it differs, or a comment. Unless noted, the call rests on the fitted dose curve; in most records, active means well fitted rising curve with a large enough effect; inconclusive means small, poorly fitted or top-dose-only effect; inactive means no such curve, though single readings can be large or run the other way. Potency means the concentration at half of the fitted maximal effect.

SMILES | RE007 growth inh | SARS PLP yeast | StopGo reporter | Cruzain Triton | Marburg entry inh | Cruzain inh noDet | Lassa entry inh | NS1 inh
CN(C)N1C(N)=C(C#N)C(c2cccs2)C2=C1CCCC2=O (stereo not given) | 22% | 1% | -13% | x | 0%[46.1 µM] | x | 29% | x
O=C(NCC1CCCO1)c1ccc([N+](=O)[O-])s1 (stereo not given) | -12% | -3% | -5% | x | 7%[46.1 µM] | x | 8% | -70%
CC(=O)Nc1ccc(Sc2ccccc2C(=O)O)cn1 | 9% | 6% | -25% | x | x | x | x | -1%
COc1ccc(CN=Cc2c(O)[nH]c3ccccc23)cc1 | -2% | -2% | 38%[activator] | x | u | x | -24% | x
COc1ccc2c(c1)c(C(=O)OCCN(C)C)c(C)n2C | -13% | 12% | -6% | -4.6% | -2%[46.1 µM] | 5% | 4% | -56%
CCn1cc(S(=O)(=O)Nc2ccc(C)c(Cl)c2)cn1 | -10% | 3% | 59%[activator] | x | x | x | x | -10%
N#CCSc1nnc2sc3ccccc3n12 | -2% | -3% | 4% | 1.2% | x | 7% | x | 0%
COc1cccc(CNC(=O)Cn2c(=O)oc3cc(S(=O)(=O)N4CCCC4)ccc32)c1 | x | x | -6% | -0.6% | 5%[46.1 µM] | 14% | u | x
CC[N+]1(CC)CC2=Cc3c(ccc4ccccc34)C(C)C2C1 (stereo not given) | -27% | 0% | 5% | x | 19%[46.1 µM] | x | 6% | -4%
CCOC(=O)c1sc(NC(=S)NC(=O)C2CCCC2)cc1C | 3% | -25% | 29% | -11% | 20% | 1% | u | 8%
O=C(NC1CCCC1)C(c1ccc(F)cc1)N(Cc1ccc(F)cc1)C(=O)c1ccn[nH]1 (stereo not given) | -13% | 0% | -8% | -4.0% | 10% | 1% | 11% | 19%
CC(O)C(NS(=O)(=O)c1ccc(Cl)cc1)C(=O)OCC(=O)c1ccc2c(c1)NC(=O)CO2 (stereo not given) | 3% | x | 0% | x | -18% | x | 9% | x
O=C(Cc1ccc(F)cc1)NC1CCS(=O)(=O)C1 (stereo not given) | -9% | -8% | 4% | x | 9%[46.1 µM] | x | 0% | x
O=C1CSC(c2cccc(Cl)c2Cl)N1c1ccccn1 (stereo not given) | 28% | 19% | u | -1.0% | -16% | 2% | 6% | -35%
COc1cc(OC)cc(C(=O)Nn2c(C)nc3ccccc3c2=O)c1 | -15% | 6% | -26% | 1.7% | -2%[46.1 µM] | 15% | 30% | 1%
CCOc1ccc(CN(C)C(=O)c2ccc(NC(=O)CC3SC(N4CCCC4)=NC3=O)cc2)cc1 (stereo not given) | 2% | 4% | -1% | x | x | x | x | -8%
Cc1nnc(SCc2ccc(F)cc2Cl)s1 | 32% | -1% | 47%[activator] | -2.4% | 25% | -7% | u | -12%
CCc1ccc(CN(Cc2cccnc2)C(=O)/C=C/c2ccc(OC)cc2)cc1 | -9% | -30% | 7% | x | u | x | 6% | 11%
CCn1cc(CN(C)S(=O)(=O)c2cccc([N+](=O)[O-])c2)cn1 | 4% | 0% | 10% | x | -8%[46.1 µM] | x | 1%[46.1 µM] | -5%
CC(C)Sc1nnc(NC(=O)c2ccco2)s1 | -24% | -3% | 23% | x | u | x | 10%[46.1 µM] | 1%

Overlap with the part before: 2 entries; new compounds follow.
SMILES | RE007 growth inh | SARS PLP yeast | StopGo reporter | Cruzain Triton | Marburg entry inh | Cruzain inh noDet | Lassa entry inh | NS1 inh
CCn1cc(CN(C)S(=O)(=O)c2cccc([N+](=O)[O-])c2)cn1 | 4% | 0% | 10% | x | -8%[46.1 µM] | x | 1%[46.1 µM] | -5%
CC(C)Sc1nnc(NC(=O)c2ccco2)s1 | -24% | -3% | 23% | x | u | x | 10%[46.1 µM] | 1%
CCOC(=O)C1C(=O)NC(N2CCCCC2)=NC1c1ccco1 (stereo not given) | 15% | 10% | -22% | 2.2% | 6% | -8% | 30% | 4%
Cc1cccnc1NCC(O)COc1ccccc1 (stereo not given) | 4% | -1% | 10% | -3.4% | -9%[46.1 µM] | -1% | -9% | 4%
N#Cc1cc([N+](=O)[O-])ccc1NCCc1ccccn1 | -4% | -6% | 14% | x | 20%[46.1 µM] | x | 6% | x
CSc1ccccc1NC(=O)CN(C)Cc1cc(=O)n2ccsc2n1 | -5% | 2% | -13% | x | u | x | -5% | x
Cc1ccc(OCC(=O)NC(C)c2ccc(Cl)c(Cl)c2)c([N+](=O)[O-])n1 (stereo not given) | -1% | -6% | u | x | -7%[46.1 µM] | x | x | -7%
Cc1cc(NC(=O)c2ccccc2[N+](=O)[O-])ccc1Br | -14% | -6% | 34%[activator] | x | u | x | 15%[46.1 µM] | x
O=C(CSc1nncn2c1cc1occc12)Nc1ccccc1C(F)(F)F | x | x | -28% | -4.1% | x | -2% | 0%[46.1 µM] | x
Cc1cc(=O)n2[nH]c(NCc3ccccc3F)nc2n1 | -16% | 7% | -2% | x | -5% | x | 17% | x
CCN(CC)C(=O)C1CC(c2ccc(OC)cc2)=NO1 (stereo not given) | 13% | -1% | 62%[activator] | 6.2% | 14% | 4% | -2% | -4%
CCOC(=O)c1c(CSc2ccccc2)oc2ccc(O)cc12 | 2% | -36% | -20% | -9.5% | u | -13% | u | -9%
COc1ccc(C=O)cc1CN1CCCN(Cc2ccc(Cl)cc2)S1(=O)=O | 43% | -2% | -19% | x | u | x | u | 6%
COc1ccccc1NC(=O)CCc1nc(-c2ccccc2F)no1 | -10% | -2% | 9% | x | -10% | x | 16% | -6%
COc1ccc(-c2nc3nc(C)cc(C)n3n2)cc1 | 23% | -2% | 35%[activator] | -15% | -2% | 8% | 23% | -53%
COc1ccc(-c2csc3nc(C)nc(N4CCN(c5ccc(C(C)=O)cc5)CC4)c23)cc1OC | 4% | -3% | -11% | x | u | x | u | x
COCCCNC(=O)CC(NS(=O)(=O)c1ccc(C)cc1)c1ccc(OC)cc1 (stereo not given) | 7% | 5% | x | 3.1% | 2% | 3% | 0% | 0%
N#CC1=C(Nc2ccc(Br)cc2)CCC1 | -3% | 1% | 2% | -2.7% | -18% | 7% | 18% | 12%
O=C(CSc1nnc(-c2cccnc2)o1)Nc1ccccc1Br | -12% | 0% | 12% | x | u | x | 30% | -26%
O=C(NCc1nc2ccccc2[nH]1)C1=C[C@H](c2ccc3c(c2)OCO3)C[C@H](OCc2ccc(CO)cc2)O1 | -7% | 2% | -10% | x | x | x | x | 20%
COc1ccc(CCNc2ccc(S(=O)(=O)N3CCCC3)cc2[N+](=O)[O-])cc1 | -4% | 15% | u | -4.7% | -5% | -1% | u | 15%
COC(=O)Cc1c(CSc2ccccc2)oc2ccc(O)c(CN(C)C)c12 | u | 2% | -21% | x | 0%[46.1 µM] | x | -23%[46.1 µM] | 1%

Structural class, those above containing bromine.
SMILES | RE007 growth inh | SARS PLP yeast | StopGo reporter | Cruzain Triton | Marburg entry inh | Cruzain inh noDet | Lassa entry inh | NS1 inh
Cc1cc(NC(=O)c2ccccc2[N+](=O)[O-])ccc1Br | -14% | -6% | 34%[activator] | x | u | x | 15%[46.1 µM] | x
N#CC1=C(Nc2ccc(Br)cc2)CCC1 | -3% | 1% | 2% | -2.7% | -18% | 7% | 18% | 12%
O=C(CSc1nnc(-c2cccnc2)o1)Nc1ccccc1Br | -12% | 0% | 12% | x | u | x | 30% | -26%

Additional results follow:
SMILES | RE007 growth inh | SARS PLP yeast | StopGo reporter | Cruzain Triton | Marburg entry inh | Cruzain inh noDet | Lassa entry inh | NS1 inh
CN(C)C(=O)Oc1ccc2c(c1)O/C(=C\c1cccc(Cl)c1)C2=O | 7% | 0% | 22% | x | u | x | u | 1%
CCOc1ccc(-n2ccnc(SCC(=O)Nc3ccc(OC)cc3OC)c2=O)cc1 | 11% | 0% | -28% | x | u | x | -30%[46.1 µM] | x
COc1cc(OC)c(NC(=O)c2csc(C)c2)cc1Cl | -7% | 8% | 12% | x | x | x | x | -35%
O=C(OCC(=O)N1c2ccccc2Sc2ccccc21)C1CC(=O)N(Cc2ccco2)C1 (stereo not given) | 6% | -1% | -18% | -4.2% | 8% | u | 6% | -5%
C=CCNC(=S)N/N=C/c1ccc(-c2ccc(OC)cc2)o1 | -11% | 1% | 14µM* | x | u | x | 1.8µM* | 2%
CC(C)COC(=O)NCCOC(=O)Nc1cccc(Cl)c1 | 0% | -1% | -24% | -0.8% | u | -5% | -21% | -49%
COc1ccc(NC(=O)c2cc(C)n(Cc3cccs3)c2C)cc1 | 1% | -2% | -19% | x | u | x | u | -6%
Cc1ccc(CNC(=O)c2ccc3nc4[nH]c5ccccc5c4nc3c2)cc1 | x | -2% | x | -5.8% | -15% | 25µM* | -6% | 0%
CC1(c2ccccc2Cl)NC(=O)N(CC(=O)Nc2cccnc2Cl)C1=O (stereo not given) | 5% | -2% | -8% | x | 9% | x | -5% | x
Cc1ccc(S(=O)(=O)Nc2cc(=O)[nH]c(SCc3ccc(Cl)cc3)n2)cc1 | x | -7% | -3% | -3.6% | -19% | -5% | -5% | 18%
c1ccc(C2=Nc3ccccc3OC2)cc1 | u | -31% | 31%[activator] | -3.2% | 5% | -18% | -2% | -34%
O=C(NC1CCCCCC1)C1CCN(C(=O)Cc2ccccc2)CC1 | -1% | 1% | 7% | -0.1% | 12% | 6% | 14% | -2%
Cc1ccc(CNC(=O)C2CCN(S(=O)(=O)N3CC(C)CC(C)C3)CC2)cc1 (stereo not given) | -1% | -3% | -17% | x | x | x | x | 12%
COc1cccc2[nH]c3c(=O)[nH]cnc3c12 | -2% | -1% | -2% | x | 13% | x | 11% | 2%
CC(C)Oc1c(Cl)cc(CNC(C)(C)CO)cc1Cl | -1% | -3% | x | 3.8% | -5% | -4% | -7% | -9%
COc1ccc(Cl)cc1S(=O)(=O)N(C)CC(=O)NCc1ccccn1 | -11% | 1% | 21% | x | 16%[46.1 µM] | x | x | 11%
CCOC(=O)c1nn(-c2ccc(F)cc2)c(=O)c(C#N)c1C | -21% | 2% | -7% | x | 21% | x | 2% | 6%

High-throughput results from PubChem.

Rows were taken by chance; overall some 4.7% were active at least once.
